AID504770 – growth inhibitors of E. coli YBA685 in a screen for V. cholerae RctB (chromosome II replication) inhibitors. E. coli YBA685 rctB-dependent plasmid, OD600 growth, 3 h; active compounds read low. z-score (concentration not given with the values). 130,000 tested, 0.27% active;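 active = z-score under -2 on both plates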;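 note: wells of about 30 µL received 100 nL stock; score is relative to mean and SD of the test wells; the first replicate is given; strong numbers were not always called active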
CapD inh – CapD enzyme inhibition; z-score (test concentration not listed); 140,000 tested, 0.23% active; purified CapD enzyme, fluorescence intensity read-out; active compounds read low; some hits fall short of the stated cut;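 active = z-score under -4 in either of two replicates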;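 note: stock transfer was 100 nL into about 40 µL; score is relative to mean and spread of the plate; one replicate is shown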
Starred values were filed as active, the others as inactive; nt = no result given; & = joins results of further samples.

SMILES | AID504770 | CapD inh
O=C1CSc2nc(-c3ccccc3)c(-c3ccccc3)n21 | -0.75 | 18
O=c1c2cc(NC(=S)NCc3ccc4c(c3)OCO4)ccc2nc2n1CCCCC2 | 0.3 | 0.14
COc1ccc(Br)cc1S(=O)(=O)N1CCc2ccccc2C1CN1C(=O)c2ccccc2C1=O (stereo not given) | nt | -1.3
O=C1CC(=O)N(Cc2cccs2)C(=O)N1 | 0.05 | nt
Cc1cc(=O)cc(C)n1-c1ccc2c(c1)nc(C)n2-c1ccccc1 | -0.3 | 0.48
COc1ccc(N(C(C)C(=O)NC2CC2)S(=O)(=O)c2cccc(C)c2)cc1 (stereo not given) | -0.7 | nt
CCCCCC#CCOC(=O)NCCc1c[nH]c2ccc(OC)cc12 | nt | 0.24
Cc1cc(=O)oc2cc(Oc3nc(-c4cccnc4)nc4ccccc34)ccc12 | -0.65 | 0.21
COC(=O)C1(C#N)C(C)(C)C1(C#N)C(=O)OC (stereo not given) | 0.2 | -0.14
COc1ccccc1C(=O)Nc1ccc(O)cc1 | -0.45 | nt
c1ccn2cc(CN3CCOCC3)nc2c1 | 0.75 | 0.48
Cc1ncccc1C(=O)NCCCN1CCc2ccccc21 | nt | 0.21
Cc1nc(NCC2CCCO2)c2nnn(Cc3c(F)cccc3Cl)c2n1 (stereo not given) | -0.2 | nt
COc1ccc(C(=O)COC(=O)c2cccc(N3C(=O)C4C5C=CC(C5)C4C3=O)c2)cc1 (stereo not given) | nt | 0.48
N/C(=N\O)c1cn(CCOc2ccccc2Cl)c2ccccc12 | -1.1 | -1.7
Cc1noc(C)c1S(=O)(=O)N1Cc2ccccc2CC1C(=O)O (stereo not given) | -0.35 | nt
c1ccc2c(c1)c1ccccc1n2CN1CCCCC1 | 0.85 | 2.9
COc1ccccc1C1N=C(c2ccc3c(c2)OCO3)CC(c2ccccc2O)N1 (stereo not given) | -0.9 | 1.2
CCC(=O)Nc1cccc(C(=O)N/N=C/c2cccc(C(F)(F)F)c2F)c1 | nt | -0.61
COc1ccc(N/C=C(\C#N)c2nc(-c3ccc4c(c3)OCO4)cs2)cc1 | 1.3 | 0.47
COc1ccccc1OCCCn1cc(C#N)c2ccccc21 | 0.65 | 2.4
FC(F)(F)c1cc(-c2cccs2)n[nH]1 | -1.5 | 0.66
Cc1cc(=O)n2c(C)csc2c1C#N | 1 | nt
COc1ccc(C2C=C(c3ccc(Br)cc3)NC(=S)N2)cc1 (stereo not given) | nt | 0.68

Filtered by structure: those above with bromine (2)
SMILES | AID504770 | CapD inh
COc1ccc(Br)cc1S(=O)(=O)N1CCc2ccccc2C1CN1C(=O)c2ccccc2C1=O (stereo not given) | nt | -1.3
COc1ccc(C2C=C(c3ccc(Br)cc3)NC(=S)N2)cc1 (stereo not given) | nt | 0.68

Next part.
SMILES | AID504770 | CapD inh
Cc1cccc(S(=O)(=O)N2CCN(c3c(C)cccc3C)CC2)c1 | nt | 0.53
COC(=O)c1c(N)n(-c2ccc(N3CCOCC3)cc2)c2nc3ccccc3nc12 | 1.5 | nt
Cc1ccccc1Oc1ccc(S(=O)(=O)N2CCOCC2)cc1 | -0.3 | -0.89
CC(SCC(=O)Nc1nc(-c2ccccc2)cs1)C(=O)O (stereo not given) | 0.05 | nt
COC(=O)c1cccnc1Sc1ccc(C)cc1 | nt | -0.35
CN(Cc1ccccc1)S(=O)(=O)c1cccc2nonc12 | nt | -0.59
CCOC(=O)C1=C(C)OC(N)=C(C#N)C1c1ccc(SC)cc1 (stereo not given) | nt | 10
CCOc1cc(C=C2C(=O)NC(=S)NC2=O)ccc1OCCOc1cccc(C)c1 | nt | -0.38
Cn1nnc2cc(C(=O)N(CCO)c3ccccc3)ccc21 | 2.1 | nt
O=C(c1c(O)c2ccccc2oc1=O)C1CCC1 | -0.6 | -0.28
CC1CCc2nn(CC(=O)N3CCN(C(=O)c4ccco4)CC3)cc2C1 (stereo not given) | 1 | 0.22
COc1ccc(NC(=O)/C=N/O)cc1 | nt | -0.3

Among those listed so far, these have a COOH group:
SMILES | AID504770 | CapD inh
Cc1noc(C)c1S(=O)(=O)N1Cc2ccccc2CC1C(=O)O (stereo not given) | -0.35 | nt
CC(SCC(=O)Nc1nc(-c2ccccc2)cs1)C(=O)O (stereo not given) | 0.05 | nt

(more compounds)
SMILES | AID504770 | CapD inh
CCOC(=O)C1CCCN(C(=O)c2cc(-c3ccc(OC)c(OC)c3)no2)C1 (stereo not given) | -0.2 | -0.86
C=C1N(C)c2ccc(NC(=O)c3ccccc3)cc2C1(C)C | -0.3 | nt
O=C(OCc1ccccc1)c1cccc(-c2nnn(Cc3ccccc3)n2)c1 | 0.1 | 0.26
CCn1cc(SCC(=O)NCc2ccco2)c2ccccc21 | 0.1 | -0.36
C=CCNc1nc(CC(=O)OCC)cs1 | -0.25 | -0.025
C=CCN(CC=C)S(=O)(=O)c1ccc(C(=O)Nc2ncc(S(=O)(=O)c3ccc([N+](=O)[O-])cc3)s2)cc1 | nt | -0.55
CC(=O)N(C)N1c2ccccc2CCc2ccccc21 | -0.95 | 0.85
Cc1nc(N)nc(N(C)C)n1 | 1.2 | -0.46
CC(N)c1cccnc1 (stereo not given) | 0 | nt
COCCOC(=O)C1=C(C)NC2=C(C(=O)CC(c3cccs3)C2)C1c1coc2ccc(C)cc2c1=O (stereo not given) | nt | -0.9
CCOc1ccc(NC(=O)CSc2nc3cc(C(=O)N4CCC(C(N)=O)CC4)ccc3c(=O)n2-c2ccccc2)cc1 | nt | -0.28
CN(C)CC#Cc1cccc(/C=N/O)c1 | nt | 0.49

The closing six records of the section before come first, to join the parts:
SMILES | AID504770 | CapD inh
CC(=O)N(C)N1c2ccccc2CCc2ccccc21 | -0.95 | 0.85
Cc1nc(N)nc(N(C)C)n1 | 1.2 | -0.46
CC(N)c1cccnc1 (stereo not given) | 0 | nt
COCCOC(=O)C1=C(C)NC2=C(C(=O)CC(c3cccs3)C2)C1c1coc2ccc(C)cc2c1=O (stereo not given) | nt | -0.9
CCOc1ccc(NC(=O)CSc2nc3cc(C(=O)N4CCC(C(N)=O)CC4)ccc3c(=O)n2-c2ccccc2)cc1 | nt | -0.28
CN(C)CC#Cc1cccc(/C=N/O)c1 | nt | 0.49
Nc1nnc(COc2ccccc2)s1 | -0.45 | -0.12
c1coc(CN=C2NC(=NCc3ccco3)c3ccccc32)c1 | -0.85 | nt
O=C(CCCn1c2ccccc2c2cn[nH]c(=O)c21)NCc1ccccc1 | 0.15 | 14
Cc1cc(C)nc(N(C)c2ccc(C(=O)O)cc2)n1 | nt | 0.025
CC(O)CN(CC(C)O)S(=O)(=O)c1ccc2[nH]cc(C(=O)O)c(=O)c2c1 (stereo not given) | nt | 1.1
COCCNC(=O)c1cccc(NC(=O)C2=C(C)OCCS2)c1 | -1.4 | 0.81
Cc1ccc(C(=O)OCC(N)=O)cc1N | 1.4 | nt
COc1cc(N(C)C)ccc1CN1CCC(NC(=O)c2ccc(C)cc2)C1 (stereo not given) | nt | 0.21
CCCc1[nH]n(-c2ccccc2)c(=O)c1C(C)=NCCOC | 2 | nt
CSc1ccc(C2C3(C#N)C(N)=NC4(OCCO4)C23C#N)cc1 (stereo not given) | 0.1 | 0.53
COC(=O)C(Cc1c[nH]c2ccccc12)NC(=O)c1ccccc1Br (stereo not given) | nt | -0.24
O=C(CC12CC3CC(CC(C3)C1)C2)Nc1nnc(SCC(=O)N2CCc3ccccc32)s1 | nt | -0.27
Cc1cc2ccccc2c(N=Cc2cc(Br)cc(Br)c2O)c1C#N | 0.25 | 26
Cc1ccc(NS(=O)(=O)c2ccc3[nH]c(=O)sc3c2)cc1F | -0.35 | 0.35
Cc1ccc(NC(=O)CN(C)C(=O)C2COc3ccccc3O2)cc1 (stereo not given) | 0.45 | nt
Oc1ccc(-c2cccc(-c3ccc(O)cc3)n2)cc1 | -0.85 | 29
COc1ccc(OC)c(S(=O)(=O)Nc2cc(C(=O)O)ccc2N2CC3CC(C2)c2cccc(=O)n2C3)c1 (stereo not given) | -1.2 | -0.055
COc1ccc(-c2ccnc(SCC(=O)NC3Cc4ccccc4C3)n2)cc1 | nt | 12
Cc1ccc(/C=N/NC(=O)c2ccc([N+](=O)[O-])cc2Cl)cc1[N+](=O)[O-] | nt | 0.77
Cc1c(C=Nc2ccc3c(c2)OCCO3)c2ccccc2n1C | 0.5 | -0.57
CC1CCCC(C)N1C(=O)C1CC(c2ccc(F)cc2)=NO1 (stereo not given) | 0.45 | -0.95
NS(=O)(=O)c1ccc(-n2c(-c3ccncc3)n[nH]c2=S)cc1 | -1.1 | -1.6
CCOC(=O)CC1C(=O)NCCN1C(=O)c1c(Cl)cccc1Cl (stereo not given) | nt | -0.18
Nc1c(NCCN2CCOCC2)c2ccccc2oc1=O | -2.6 | nt

Profiles from above:
Cc1ccc(/C=N/NC(=O)c2ccc([N+](=O)[O-])cc2Cl)cc1[N+](=O)[O-] across the screens: AID504770: nt; CapD inh: 0.77
COc1ccc(-c2ccnc(SCC(=O)NC3Cc4ccccc4C3)n2)cc1 across the screens: AID504770: nt; CapD inh: 12

Next section
SMILES | AID504770 | CapD inh
CC1CCCC(NC(=O)COC(=O)c2cccc(S(=O)(=O)N(C)C)c2)C1C (stereo not given) | -0.25 | nt
CC(C)c1cc(C(=O)O)no1 | -0.25 | nt
NS(=O)(=O)c1cc([N+](=O)[O-])c(N2CCN(C(=O)OCC3CCCCN3Cc3cc4c(cc3[N+](=O)[O-])OCO4)CC2)s1 (stereo not given) | nt | 0.27
CC(C)(C)OC(=O)N1CCC(OCC(=O)O)CC1 | 0.5 | nt
c1ccc(-c2noc(CCC3CCCC3)n2)cc1 | -0.65 | -0.52
O=C1C2CC=CCC2C(=O)N1CN1CCN(Cc2ccccc2)CC1 (stereo not given) | 0.35 | nt
CCCCn1nnnc1NCc1ccccc1 | 0.5 | -0.14
CN(C(=O)COC(=O)c1ccccc1Br)C1CCCCC1 | -0.6 | nt
CC1=CCC2C(=O)N(C3CCCCC3)C(=O)C2C1 (stereo not given) | -0.7 | nt
CC(=O)Oc1c(-c2ccccc2)sc2ccccc12 | -0.15 | -0.55
CN1CCN(Cn2c(=S)oc3cc(S(=O)(=O)Nc4ccccc4Cl)ccc32)CC1 | -0.7 | nt
CCS(=O)(=O)c1ccc(O)c(NCN2C(=O)S/C(=C\c3ccc(F)cc3)C2=O)c1 | -0.3 | nt
C=COC(=O)CSc1nc(-c2cccs2)cc(C(F)(F)F)c1C#N | nt | 71
O=c1c2cc(Br)ccc2nc(-c2cccc(C(F)(F)F)c2)n1O | nt | -0.27
Cn1c(=O)oc2cc(S(=O)(=O)NCc3ccco3)ccc21 | -0.95 | 2.5
CC(=O)Nc1nc(-c2ccc3c(c2)OCCO3)cs1 | 0.4 | -0.33
Cc1noc(C)c1Cc1ccc(C(=O)O)s1 | -0.6 | nt
O=S(=O)(Nc1ccc2ccccc2n1)c1cccs1 | 1.6 | 20
CCC(CO)n1c(SCC(=O)Nc2ccc(C)c(C)c2)nc2cc(OC)c(OC)cc2c1=O (stereo not given) | 1.1 | nt
Cc1nc2c(=O)n(-c3cc(C(F)(F)F)ccc3Cl)nc(C)c2s1 | -0.55 | 11
COc1ccc(CNC(=O)c2cc3ccccc3oc2=O)cc1 | 0.7 | 1.7
CCC1CCCCN1Cc1ccc(CNC(=O)c2cc3ccc4cccnc4c3[nH]2)o1 (stereo not given) | -0.1 | 0.8
CC(CN1C(C)CCCC1C)OC(=O)c1ccc(F)cc1 (stereo not given) | -0.45 | -0.53
O=C1CC(C(=O)Nc2ccc(Cl)cc2)SC(=Nc2ccccc2)N1 (stereo not given) | 1.2&0.25 | -0.55&0.2
CN(CC(=O)N1CCCCCC1)S(=O)(=O)c1cccc2cccnc12 | -0.3 | 0.12
CN(C(=O)COC(=O)Cc1c[nH]c2ccccc12)C1CCCCC1 | 1.3 | nt
CC(c1ccccc1)N1CCN(C(=O)CC(c2ccccc2)(c2ccccc2)c2ccccc2)CC1 (stereo not given) | nt | -0.82
C=CC(=O)NCC(c1cccs1)N1CCOCC1 (stereo not given) | 0 | -0.42
ON(Cc1ccc(Cl)cc1)Cc1ccc(Cl)cc1 | nt | 0.79
CCOC(=O)C1(C#N)C(c2cccc([N+](=O)[O-])c2)C(C(N)=O)N2C=C(C(N)=O)C=CC21 (stereo not given) | nt | -0.39
CCOC(=O)CN1CCC(n2nnc3cc(C(F)(F)F)ccc32)CC1 | 1.3 | nt
CCOC(=O)N1CCC(NC(=O)c2cc3c(s2)-c2ccccc2OC3)CC1 | -1 | -0.49
O=C(CC(=O)N1CCCCC1)N1CCCCC1 | -0.05 | -0.65
CCOC(=O)C1=C(N)OC2=C(C(=O)CC(C)(C)C2)C1c1c(Cl)cccc1Cl (stereo not given) | nt | 0.46
COc1ccc(/C(O)=C2/C(=O)C(=O)N(c3cccc(C(=O)O)c3)C2c2ccccc2)cc1 (stereo not given) | nt | -0.5
CC1=NN(c2ccccc2)C(=O)/C1=C/c1cn(CC(O)CN2CCOCC2)c2ccccc12 (stereo not given) | 0.55 | -3.3
COC(=O)CC1=CC(C)(CC(=O)OC)C(C#N)(C#N)C(N)=C1C#N (stereo not given) | 1 | -2.5
CCOC(=O)C1=C(C)N=c2s/c(=C/c3cc([N+](=O)[O-])ccc3N3CCN(C)CC3)c(=O)n2C1c1ccc(OC)cc1 (stereo not given) | nt | -0.2
COc1ccc(C(=O)O/N=C(\N)c2ccccc2)cc1 | -1.8 | 0.45
CC(NC(=O)C(=S)N1CCCC1)c1ccccc1 (stereo not given) | 0.25 | 1.8

High-throughput results: PubChem BioAssay, ICCB-Longwood Screening Facility, Harvard Medical School

The list is partial; rates above refer to the full screens.
